miR-21 reporter: qHTS Assay for Modulators of miRNAs and/orActivators of miR-21 | HeLa miR-21 FLuc reporter, luciferase, 48 h | Potency, µM (top dose mostly 38.3 µM), for inactives: top-dose reporter change, positive = more light | 340,000 tested, under 10 active | AID 2288, 2010; active = well fitted rising curve with a large enough effect; inconclusive = small, poorly fitted or top-dose-only effect; inactive = no such curve, though single readings can be large or run the other way;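 also: % of control where 0% means no effect; miR-21 action dims this reporter so a rising signal means less miR-21 action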
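Compounds were titrated across several concentrations (up to approximately 40 uM) and incubated 48 hours with HeLa miR-21-FLuc reporter cells (miR-21 target sequence downstream of FLuc, endogenous miR-21). Readout was firefly luciferase luminescence after lytic detection reagent.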
Rango complex inh: qHTS Assay for Inhibitors of Rango (Ran-regulated importin-beta cargo) - Importin beta complex formation | Rango CFP/YFP FRET sensor + importin beta, 45 min | Potency, µM (series often up to 92.2 µM), without a hit: at the top dose inhibition of complex formation | hit rate 0.031% among 340,000; active = rising FRET ratio curve, often small or poorly fitted; inconclusive = mostly compound fluorescence or quenching in the first reads; inactive = flat curves in all reads;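 also: potency is read from the fitted curve at half-maximal effect; 0% = DMSO wells and 100% = buffer wells lacking importin beta; nearly all actives have a fitted effect of over 15% in size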
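Inhibition scored from the CFP 486 nm/YFP 530 nm FRET ratio 45 min after adding 0.125 microM importin beta to 50 nM Rango biosensor preincubated 5 min with compound (room temperature, PBS with DTT, Tween-20, BSA). No-importin wells as positive control.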
Rango dissoc inh: qHTS Assay for Inhibitors of RanGTP induced Rango (Ran-regulated importin-beta cargo) - Importin beta complex dissociation. Potency, µM (top dose mostly 46.1 µM), inactives show at the top dose activity change, negative = inhibition. Snurportin-1 (Homo sapiens) + GTP-binding nuclear protein Ran (Homo sapiens) + Importin …. hit rate 0.071% among 340,000. Biochemical FRET Rango-importin beta, RanGTP-induced dissociation; active means falling FRET ratio curve, often poorly fitted, with flat reads before Ran was added; inconclusive means other falling curves, or compound fluorescence or quenching; inactive means flat or rising ratio curve;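 also: potency is read from the fitted curve at half-maximal effect; % of control where 0% means no effect; nearly all actives have a fitted effect of over 45% in size; -100% = wells without RanGTP and RCC1; the record marks most hits as doubtful in a second field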
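FRET read at 45 min, room temperature: inhibitors block the CFP/YFP signal rise when RanGTP (0.6 uM Ran, 2 mM GTP, 0.2 uM RCC1) frees Rango (0.1 uM) from importin beta (0.25 uM). Pre-read after 5 min compound exposure flags interference.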
GLA inh pH 4.5: qHTS Assay for Inhibitors of Human alpha-Galactosidase at pH 4.5; Alpha-galactosidase A (Homo sapiens), P06280; purified enzyme, 4-MU-alpha-Gal fluorescence, pH 4.5; activity change, negative = inhibition, % at 105 µM; 230,000 tested, under 10 active; AID 1467, 2008; inconclusive = small, poorly fitted or top-dose-only inhibition, or a rising curve; inactive = flat fitted curve, though single readings scatter; no compound was filed as active;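 also: 0% = full activity with enzyme and -100% = basal without enzyme; dose as in the result columns while the protocol names 77 µM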
Target sequence (P06280 whole entry, looked up): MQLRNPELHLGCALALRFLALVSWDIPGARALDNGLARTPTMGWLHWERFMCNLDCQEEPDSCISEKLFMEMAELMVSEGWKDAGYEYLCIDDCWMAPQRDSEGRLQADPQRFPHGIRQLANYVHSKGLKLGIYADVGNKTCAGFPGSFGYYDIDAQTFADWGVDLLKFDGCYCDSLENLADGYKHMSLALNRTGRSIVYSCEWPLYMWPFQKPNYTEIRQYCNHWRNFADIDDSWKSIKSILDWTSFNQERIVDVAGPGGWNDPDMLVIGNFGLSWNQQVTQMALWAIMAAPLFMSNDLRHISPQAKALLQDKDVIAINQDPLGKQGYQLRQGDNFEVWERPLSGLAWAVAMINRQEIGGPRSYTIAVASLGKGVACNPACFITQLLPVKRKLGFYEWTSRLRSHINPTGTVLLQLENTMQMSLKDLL
* = called active by the depositor; ? = inconclusive; nt = no result given.

No.	Rango complex inh	miR-21 reporter	Rango dissoc inh	GLA inh pH 4.5	molecule
1	-2.8%	0%	8%	13	COCCCN1C(=O)C(=O)/C(=C(/O)c2ccc(OCC(C)C)cc2)C1c1cccnc1 (centres undefined)
2	-4.5%	nt	-6%	nt	COc1ccc([C@H]2CC(=O)C=C(c3ccc4c5c(cccc35)CC4)C2)cc1
3	-0.3%	-2%	-7%	3	CCOC(=O)C1CCN(CC(=O)Nc2ccc(OC)c(Cl)c2)CC1
4	?	2%	?	3	Cc1cc(C)c2c(N)c(C(=O)NN3CC(=O)N(c4ccccc4)CC3=O)sc2n1
5	-1.4%	-5%	-15%	nt	CCOc1ccc(C(C(=O)NC2CCCCC2)N(CCOC)C(=O)c2snc(C(N)=O)c2N)cc1 (centres undefined)
6	-1.3%	-6%	9%	nt	Cn1c(-c2nonc2N)nc2ccccc21
7	2.7%	15%	-2%	-8	Cc1cc(Cl)ccc1N=C1N=C(N)c2ccccc21
8	?	0%	1%	4	O=C(c1cncc(Br)c1)N1CCN(c2ccc(N3CCOCC3)nn2)CC1
9	?	4%	2%	-10	Cc1onc(-c2ccccc2)c1C(=O)Nc1cccc(OC(C)C)c1
10	1.6%	-1%	14%	-12	COc1ccc(NC(=O)N2CCCC2)cc1OC
11	-0.4%	1%	27%	1	Cc1nc(N2CCN(C(=O)c3ccco3)CC2)c2c3c(sc2n1)CCC3
12	-2.5%	2%	4%	-2	CC(=O)Nc1ccc(/C=N/Nc2ccc(C(=O)c3c(C)cc4ccccn34)cc2[N+](=O)[O-])cc1
13	0.2%	-2%	0%	-6	CCc1c(C)nc(SCC(=O)N2CCN(c3ccccc3)CC2)[nH]c1=O
14	0.7%	-7%	7%	-6	COc1ccc(C(=O)CSc2nc3nc(C)cc(C)n3n2)cc1OC
15	-0.2%	22%	-2%	-5	Cc1cccc(N2CCN(C(=O)c3cc(C)oc3C)CC2C)c1 (centres undefined)
16	-0.8%	2%	-19%	-1	CCOC(=O)C1CCN(C(=S)Nc2ccc(C)cc2)CC1
17	4.9%	nt	-7%	nt	Cc1ccc(S(=O)(=O)N2[C@@H](c3ccccc3F)C(C(=O)O)=CC[C@H]2c2cccc(C)c2)cc1
18	-0.5%	-1%	-14%	-18	c1ccc(CC2CCCNC2)cc1 (centres undefined)
19	-2.8%	nt	-21%	nt	CN(C)C(CNC(=O)c1ccc(OCc2cn3ccccc3n2)cc1)c1ccco1 (centres undefined)
20	-0.8%	-1%	2%	6	Cc1cc(NC(=O)CSc2nc3ccccc3s2)no1
21	7.7%	?	-1%	nt	CCOc1ccccc1NC(=O)COC(=O)CC(C)(C)CC1=NS(=O)(=O)c2ccccc2N1
22	-0.4%	-5%	8%	nt	O=C(O)CCn1c(Cc2ccccc2)nc2ccccc21
23	5.0%	2%	3%	2	CC(=O)NNC(=O)CCn1nnc(-c2ccc(Cl)cc2)n1
24	-4.2%	-3%	2%	-9	CCc1c(C)sc(NC(=O)c2cc(-c3ccc(O)cc3)on2)c1C#N
25	3.7%	0%	-4%	4	Cc1ccc(C(=O)Nc2cccc(-c3nc4ncccc4o3)c2)cc1

5 entries from above in another layout.
Every second line gives: Rango complex inh, miR-21 reporter, Rango dissoc inh, GLA inh pH 4.5
(9) Cc1onc(-c2ccccc2)c1C(=O)Nc1cccc(OC(C)C)c1
  ?, 4%, 2%, -10
(10) COc1ccc(NC(=O)N2CCCC2)cc1OC
  1.6%, -1%, 14%, -12
(11) Cc1nc(N2CCN(C(=O)c3ccco3)CC2)c2c3c(sc2n1)CCC3
  -0.4%, 1%, 27%, 1
(12) CC(=O)Nc1ccc(/C=N/Nc2ccc(C(=O)c3c(C)cc4ccccn34)cc2[N+](=O)[O-])cc1
  -2.5%, 2%, 4%, -2
(13) CCc1c(C)nc(SCC(=O)N2CCN(c3ccccc3)CC2)[nH]c1=O
  0.2%, -2%, 0%, -6

The list goes on.
No.	Rango complex inh	miR-21 reporter	Rango dissoc inh	GLA inh pH 4.5	molecule
26	-0.3%	0%	-10%	-7	CCCCOC(=O)NC(NCC(O)c1ccccc1)(C(F)(F)F)C(F)(F)F (centres undefined)
27	-4.5%	-5%	-2%	nt	COc1ccc(NC(=O)CSc2ccc(-c3ccco3)nn2)c(OC)c1
28	2.8%	-10%	-3%	-25	CC1CCCN(Cc2c(O)ccc3c(=O)c(-c4nc5ccccc5s4)c(N)oc23)C1 (centres undefined)
29	4.1%	-46%	13%	-9	c1ccc(-c2cnnc(N3CCOCC3)n2)cc1
30	2.5%	6%	1%	0	CCOP(=O)(c1ccccc1)c1nc(-c2ccc(F)cc2)oc1N1CCCCC1 (centres undefined)
31	-5.2%	4%	15%	-4	Nc1nc(-c2ccccc2)c(-c2ccccc2)o1
32	-2.4%	27%	15%	-7	Cc1nnc(SC(=O)N2c3ccccc3Sc3ccccc32)s1
33	?	5%	?	-5	CCN(CC)c1ccc(/C=N\NC(=O)c2cccc3cc[nH]c23)cc1
34	-4.0%	18%	-1%	-3	COC(=O)CC/C(O)=C1\C(=O)CC(C)(C)CC1=Nc1ccccc1OC
35	-2.0%	?	-5%	-3	Cc1cc(C)c2c(=O)n(CC(=O)NCCCN3CCN(c4ccccc4F)CC3)sc2n1
36	-0.3%	-6%	-11%	-8	CSc1ccc(Cn2nnc(C(=O)NCCc3ccc(Cl)cc3)c2N)cc1
37	nt	3%	nt	1	Cc1ccc(C(=O)N2CCN(c3ncnc4c(-c5ccccc5)nsc34)CC2)cc1
38	0.9%	-4%	7%	-1	Cc1cc(NC(=O)CSc2nnc(-c3ccc4c(c3)OCCO4)o2)no1
39	1.2%	-1%	-1%	-9	COCCCNC(=O)CC1C(=O)N(Cc2ccccc2)C(C)c2nc3ccccc3n21 (centres undefined)
40	-1.8%	2%	14%	-6	O=C(COc1ccc([N+](=O)[O-])cc1)NCc1ccncc1
41	1.4%	2%	3%	nt	O=C(CNC(=O)c1ccccc1)OCC(=O)c1ccccc1Cl
42	0.2%	-13%	4%	-4	Cc1cc2c(cc1C)NC1=C(N2)OC(c2cccc(O)c2)C1=O (centres undefined)
43	5.1%	-2%	12%	nt	COc1ccc2c(c1OC)C(=O)OC2N1C(=O)CC[C@H]1C(=O)NCC1CCCO1 (some centres undefined)
44	?	-11%	-16%	-6	COc1ccc(CC(=O)O/N=C(\N)Cc2cccc3ccccc23)cc1
45	0.2%	-10%	-9%	-5	COCCCNc1nc2c(c(=O)[nH]c(=O)n2C)n1CC(O)COc1ccccc1 (centres undefined)
46	2.9%	22%	9%	nt	CCCCC(=O)Nc1nc(-c2ccc(S(=O)(=O)N3CCOCC3)cc2)cs1
47	6.3%	-14%	11%	5	O=C(CCc1nnc(Cc2cccc(C(F)(F)F)c2)o1)NCC(F)(F)F
48	?	-59%	-18%	-2	Cc1nc(SCC(=O)c2cccs2)c2oc3ccccc3c2n1
49	-0.3%	nt	2%	nt	COc1ccc(CC(=O)Nc2ccc(F)c(S(=O)(=O)N3CCOCC3)c2)cc1
50	-1.6%	8%	14%	nt	O=C(c1ccc(CS(=O)Cc2ccccc2Cl)o1)N1CCN(c2ccccn2)CC1 (centres undefined)

Other structures
No.	Rango complex inh	miR-21 reporter	Rango dissoc inh	GLA inh pH 4.5	molecule
51	0.7%	0%	1%	4	CCO[C@H]1OC(C(N)=O)=C[C@@H](C)[C@@H]1CCCO
52	2.4%	nt	3%	nt	COc1ccc(COC(=O)c2ccc(C)c(S(=O)(=O)N3CCOCC3)c2)cc1F
53	-1.7%	-5%	25%	3	CC12CCC(C(=Nc3ccc(N=C4C(=O)C5(C)CCC4C5(C)C)cc3)C1=O)C2(C)C
54	7.3%	-2%	-3%	5	OCCN(Cc1ccccc1)Cc1nc(CC2CC2)no1
55	3.2%	-3%	-8%	nt	Cc1c(C)c2ccc(OCC(=O)N[C@@H](Cc3c[nH]c4ccccc34)C(=O)O)cc2oc1=O
56	?	-2%	-16%	-2	CCn1c(SCc2nc3ccccc3[nH]2)nnc1-c1ccncc1
57	-4.0%	-20%	-14%	-11	CC(=O)c1sc(NC(=O)c2ccccc2C)nc1C
58	0.4%	-11%	-16%	4	CC(C)(Oc1ccc(Cl)cc1)C(=O)NCc1ccc(S(N)(=O)=O)cc1
59	0.1%	15%	0%	nt	COCCCNC(=S)N1CCC(C(=O)c2ccc(Cl)cc2)CC1
60	-0.2%	-2%	-8%	1	CCOC(=O)C1CCCN(C(=O)CS(=O)(=O)Cc2ccccc2)C1 (centres undefined)
61	0.3%	-7%	-14%	3	O=C(CSc1nnc(-c2cccnc2)n1Cc1ccco1)c1ccccc1
62	0.4%	-3%	-2%	-7	COCCCNC(=S)NNC(=O)c1ccccc1Br
63	3.8%	3%	-5%	nt	CCOc1ccccc1NC(=O)c1oc2ccccc2c1NC(=O)C1CC1
64	?	1%	-24%	nt	Cc1cc(=O)n(Cc2ccccc2)c(O)c1C#N
65	-2.4%	nt	14%	nt	CC(NC(=O)c1cccc(S(=O)(=O)N2CCN(C)CC2)c1)c1ccc(Cl)cc1Cl (centres undefined)
66	-1.3%	17%	-8%	-12	O=C(Nc1ccc(Cl)c(Cl)c1)OCCNC(=O)c1cccc(Cl)c1
67	0.0%	-10%	-5%	5	CCc1cc(OCCN2C(=O)NC(C)(C)C2=O)ccc1Cl
68	-3.8%	-6%	2%	1	NC(=O)C1=C[C@@H](c2ccc(Br)cc2)C[C@@H](OCc2ccc(CO)cc2)O1
69	?	20%	?	nt	O=C(N/N=C/c1cc(Cl)ccc1O)c1cccnc1
70	2.7%	-1%	-3%	0	O=C(NC1CCCCC1)c1sc(=S)n2c1[nH]c(=O)c1ccccc12
71	0.7%	0%	-13%	4	Cc1ccc(C)c(N(CC(=O)NCCC2=CCCCC2)S(C)(=O)=O)c1
72	1.2%	nt	-7%	nt	O=C1NC(=O)C(=Cc2ccc(Cl)c(Cl)c2)S1
73	-2.3%	4%	-9%	0	COc1ccc(C(O)P(=O)(OCCC(C)C)c2ccc(N(C)C)cc2)cc1OC (centres undefined)
74	-5.7%	-5%	?	nt	CCOC(=O)c1sc2c(c1C)c(=O)n(Cc1ccccc1)c(=O)n2CCN(C)C
75	7.4%	-10%	12%	-4	CNC(=S)N(Cc1ccc(OC)cc1)Cc1cc2ccc(C)cc2[nH]c1=O

Records 72 through 75 from above:
No.	Rango complex inh	miR-21 reporter	Rango dissoc inh	GLA inh pH 4.5	molecule
72	1.2%	nt	-7%	nt	O=C1NC(=O)C(=Cc2ccc(Cl)c(Cl)c2)S1
73	-2.3%	4%	-9%	0	COc1ccc(C(O)P(=O)(OCCC(C)C)c2ccc(N(C)C)cc2)cc1OC (centres undefined)
74	-5.7%	-5%	?	nt	CCOC(=O)c1sc2c(c1C)c(=O)n(Cc1ccccc1)c(=O)n2CCN(C)C
75	7.4%	-10%	12%	-4	CNC(=S)N(Cc1ccc(OC)cc1)Cc1cc2ccc(C)cc2[nH]c1=O

Further compounds.
No.	Rango complex inh	miR-21 reporter	Rango dissoc inh	GLA inh pH 4.5	molecule
76	-2.7%	-1%	-2%	0	COc1cccc(-n2cc(CNCc3cn(C)nc3-c3ccccc3F)cn2)c1
77	-1.7%	-3%	-11%	nt	COc1ccc(CNC(=O)CCNC(=O)N2CCn3c2nc2ccccc23)cc1
78	1.7%	nt	-13%	nt	CCCn1c(SCC(=O)c2c(N)n(C3CC3)c(=O)[nH]c2=O)nnc1-c1ccncc1
79	-0.7%	1%	-7%	nt	COc1ccc(S(=O)(=O)N2CCOC2CNC(=O)C(=O)NCCN(C)C)cc1 (centres undefined)
80	-2.0%	-5%	0%	?	COc1ccc(N2CCN(c3oc(Cc4ccccc4)nc3C#N)CC2)cc1
81	nt	-11%	nt	-4	CC(C)CN1C(=O)/C(=C/c2c(N3CCc4ccccc4C3)nc3ccccn3c2=O)SC1=S
82	0.5%	-13%	-5%	nt	COc1cc(CNc2ccc3[nH]c(=O)[nH]c3c2)ccc1OCc1cccc(C)c1
83	1.0%	-2%	-5%	6	COC(=O)c1c(C(C)=O)cnc2ccc(Br)cc12
84	0.5%	-2%	0%	-3	COc1ccc2[nH]c3c(=O)n(Cc4ccc(C(=O)N5CCCCCC5)cc4)c(=S)[nH]c3c2c1

Only part of the results is shown; count on the stated rates, not on these rows.
